From PubChem
CtBP-E1A inh: qHTS Assay for Inhibitors of the CtBP/E1A Interaction; activity change, % (test concentration not listed); AID 651724, 2012; CtBP / adenovirus E1A interaction (AlphaScreen); AlphaScreen GST-E1A/His-CtBP binding, 1536-well; stronger effect = lower value; control for the full effect not named in the record; 340,000 compounds, 0.49% hits; in the data active means activity change below about -65%; inconclusive means about -30% to -65%; inactive means above about -30%; further: on the % scale 0 is the no-effect control and ±100 the full control effect
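Homogeneous bead-based format: GST-tagged E1A captured on glutathione donor beads, His-tagged CtBP on nickel acceptor beads; compounds precede bead addition by 2 h at 37 °C.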
D2 agonist: Beta-Arrestin HTS for Positive Allosteric Modulators of the Human D2 Dopamine Receptor: Agonists. 360,000 compounds, 0.084% hits. D(2) dopamine receptor (Homo sapiens), P14416. activation, % (no concentration beside the values). AID 624465, 2012. DiscoveRx PathHunter D2 beta-arrestin, luminescence, 90 min; 100% = 57 uM dopamine signal; in the data active = activation above about 40%; inconclusive = about 15% to 40%; inactive = below about 15%; further: compound concentration not given in the record; the text of the record calls up to 30% inactive
Target sequence (P14416 whole entry, looked up): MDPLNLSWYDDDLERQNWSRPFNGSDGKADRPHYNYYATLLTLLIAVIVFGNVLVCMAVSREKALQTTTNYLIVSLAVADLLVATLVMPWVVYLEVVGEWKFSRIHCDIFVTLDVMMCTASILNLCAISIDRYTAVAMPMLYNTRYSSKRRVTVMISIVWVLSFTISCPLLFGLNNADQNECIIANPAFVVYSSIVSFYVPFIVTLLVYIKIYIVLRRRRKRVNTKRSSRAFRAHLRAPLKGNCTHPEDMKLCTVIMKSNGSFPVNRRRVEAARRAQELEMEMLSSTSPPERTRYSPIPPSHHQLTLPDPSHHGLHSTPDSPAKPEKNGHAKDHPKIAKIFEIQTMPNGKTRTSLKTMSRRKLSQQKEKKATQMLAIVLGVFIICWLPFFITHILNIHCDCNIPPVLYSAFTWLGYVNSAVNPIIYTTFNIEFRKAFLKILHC
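DiscoveRx PathHunter D2 beta-arrestin cells (2,100/well) attached overnight, then compound-stimulated 90 min at 37 C in HBSS/10 mM HEPES/0.1% Tween-20 buffer; beta-galactosidase complementation read by luminescence after 1 h at ambient temperature. Dopamine 57 uM final (EC100) as control.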
Six1-Eya2 blk: qHTS Assay for Inhibitors of the Six1/Eya2 Interaction | Homeobox protein SIX1 (Homo sapiens) + Protein phosphatase EYA2 (Homo sapiens), … | AlphaScreen GST-Six1/His-Eya2 binding, biochemical; stronger effect = lower value; control for the full effect not named in the record | activity change, % (no concentration beside the values) | 360,000 compounds, 0.56% hits | AID 651725, 2012; in the data active = activity change below about -65%; inconclusive = about -30% to -65%; inactive = above about -30%; further: on the % scale 0 is the no-effect control and ±100 the full control effect
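GST-Six1 + His-Eya2 (5X stock: 250/500 nM); Tris pH 8.0, 300 mM NaCl, 0.05% BSA, 0.02% Tween 20; GSH donor/Ni acceptor beads; 1 h 37 °C dark; AlphaScreen readout.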
D2 PAM: Beta-Arrestin HTS for Positive Allosteric Modulators of the Human D2 Dopamine Receptor: Potentiators; potentiation, % (no concentration beside the values); 360,000 compounds, 0.23% hits; DiscoveRx D2 beta-arrestin cells, luminescence, 90 min; 100% = 57 uM dopamine signal; D(2) dopamine receptor (Homo sapiens), P14416; active = potentiation of 50% or more; inconclusive = 30% to 50%; inactive = 30% or less;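 further: compound concentration not given in the record; tested on top of an EC20 dose of dopamine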
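PathHunter beta-arrestin assay in DiscoveRx D2 cells. Compounds were added with an EC20 of dopamine (50 nM final) for 90 min at 37 deg C. Luminescence was read 1 h after detection reagent, with 57 uM dopamine as the EC100 control.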
PINK1 modulator: A Quantitative High throughput Screen to Identify Chemical Modulators of PINK1 Expression; PINK1 immunofluorescence, high-content cytometry, 24 h; Potency, µM (series often up to 76.6 µM), without a hit: top-dose activation (PINK1 increase), hits mostly activators; 410,000 compounds, 0.2% hits; active = well fitted activation curve with a large enough effect; inconclusive = small, poorly fitted or top-dose-only effect; inactive = flat fitted curve, though single readings scatter; cell line not stated here;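 further: potency means the concentration at half of the fitted maximal effect; % of control where 0% means no effect; nearly all actives have a fitted effect of over 65% in size; a mitochondrial uncoupler was the plate control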
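Readout is PINK1 immunofluorescence, quantified alongside mitochondrial, cell and nuclear markers by laser-scanning microplate cytometry. Cells from a stable line were exposed to compound titrations (5 concentrations) for 24 hours, with CCCP controls.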
Sfp PPTase inh: qHTS Assay for Inhibitors of Bacillus subtilis Sfp phosphopantetheinyl transferase (PPTase) | 4'-phosphopantetheinyl transferase ffp (Bacillus subtilis), Q9F4F7 | Biochemical Sfp PPTase activity, qHTS | Potency, µM, without a hit: max response, negative = inhibition, actives largely listed as inhibitors | 310,000 compounds, 3.5% hits; active means well fitted inhibition curve with a large enough effect; inconclusive means small, poorly fitted or top-dose-only effect, or another doubt; inactive means no such curve, though single readings can be large or run the other way;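 further: the enzyme is Sfp with the accession as filed and its product quenches rhodamine fluorescence; potency means the concentration at half of the fitted maximal effect; 0% = enzyme reaction without inhibitor and -100% = no enzyme wells; top concentration of the series not given in the record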
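With Hepes-Na pH 7.6 buffer containing 10 mM MgCl2, Sfp (15 nM) modified BHQ-2-YbbR (12.5 uM) using rhodamine-CoA (5 uM). Two reads 30 minutes apart at 525/598 nm yielded each well's rate.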
TRPV1 potentiator: HTS Assay for Compounds that Act as Potentiators of the Vanilloid Receptor 1; potentiation, % at 8.33 µM; TRPV1-expressing cells, Fluo-8 calcium influx, capsaicin EC20 potentiation; host cell line not named in the record; control for the full effect not named in the record; 320,000 compounds, 0.02% hits; Transient receptor potential cation channel subfamily V member 1 (Homo sapiens), Q8NER1; active means potentiation above 80%; inconclusive means 30% to 80%; inactive means below 30%; further: 0% is about no effect
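TRPV1-expressing cells were cultured overnight at 35.5C and loaded with Fluo-8 calcium dye for 40 to 90 min at room temperature. After a 10 s baseline, compound was added and calcium influx was read kinetically for 3 min (ex 480/em 520 nm).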
An asterisk follows results filed as active; ? = inconclusive; · = not tested or not shown; & = joins results of further samples; [ ] = remark or other dose.

SMILES	CtBP-E1A inh	D2 agonist	Six1-Eya2 blk	D2 PAM	PINK1 modulator	Sfp PPTase inh	TRPV1 potentiator
CC(=O)Nc1ccc(OCc2cccc([N+](=O)[O-])c2)cc1	-3.2	0.8	2.8	-4.0	5.9%	15.1%	12.9
Cc1ccc(S(=O)(=O)N2CCC(C(=O)NCc3ccncc3)CC2)cc1	-2.4	-0.9	4.8	-6.2	7.5%[38.3 µM]	7.4%	3.6
COc1ccc(F)cc1S(=O)(=O)N1CCC2(CC1)OCCN2S(=O)(=O)c1ccccc1	1.2	0.0	1.2	-0.9	-0.9%	·	-6.6
COc1ccc(C(=O)OCC(=O)c2ccc3c(c2)NC(=O)CO3)cc1OC	9.0	?	3.0	-1.1	-0.2%	·	·
CCCCCCN1C[C@@H](O)[C@H](n2cc(C3CC3)nn2)C[C@@H]1c1ccccc1	0.4	-11.9	-3.0	3.0	?	·	·
Cc1cccc(NC(c2ccc(C)s2)c2ccc3ccc(C)nc3c2O)n1 (stereo not drawn)	-4.8	-3.7	-8.6	-3.5	0.2%	-2.7%	0.5
COc1ccccc1CNC(=O)CCCc1nnc2n(C)c(=O)c3sccc3n12	·	-4.1	-15.8	-4.5	1.1%	2.9%	4.0
O=C(O)c1n[nH]nc1-c1ccccc1	-21.2	-5.8	-10.9	3.2	1.6%	70.8µM*	25.8
Cc1ccc(C)c(NC(=O)Cn2nnc(C(=O)NCc3cccs3)c2N)c1	1.5	-3.0	-1.9	-22.1	8.7%	-3.3%	·
COc1ccccc1/C=C/CN1CCSCC1	0.5	1.2	-6.7	-10.2	2.9%	-9.5%	2.1
COc1ccccc1CNC(=O)c1ccc2c(=O)n(CCCN3CCCC3=O)c(=S)[nH]c2c1	-16.9	-4.3	?	-11.0	1.1%	18.5%	4.4
CNS(=O)(=O)c1ccc(NC(=O)Nc2cccc(F)c2)cc1	0.1	0.5	8.4	6.0	2.3%	-2.0%	7.1
Cc1nnsc1C(=O)N1CCN(c2ccc(C#N)cn2)CC1	8.5	-0.3	12.9	-12.3	0.5%	5.9%	-0.7
CCOC(=O)C1CCCN(C(=S)Nc2cccc(Cl)c2C)C1 (stereo not drawn)	-25.3	-4.9	0.0	-6.5	-1.1%	14.8%	-2.5
COC(=O)c1cccc(C(=O)N2CCCC(CNC(=O)c3ccccc3Cl)C2)c1 (stereo not drawn)	1.1	-7.1	4.0	-11.1	-1.6%	11.8%	-16.4
O=C(NCCc1csc(-c2ccc(Cl)cc2)n1)c1ccco1	-9.5	-1.0	-2.8	-0.5	0.3%&0.3%	-3.4%	4.9
COCCCNC(=S)NNC(=O)c1csc2ccccc12	-5.1	-6.2	8.0	-6.5	-1.5%	21.8%	3.0
O=C(CCn1nc(-c2ccc(Cl)cc2)ccc1=O)N1CCN(c2ccc(F)cc2)CC1	·	1.4	-6.7	8.9	0.5%	-5.2%	-15.2
CCCCn1c(SCn2nnc3ccccc3c2=O)nc2cc(S(N)(=O)=O)ccc21	4.1	3.2	-1.3	-2.9	·	-2.5%	7.4
CCN(C(=O)c1cccc(F)c1)c1ccccc1C	2.5	-2.9	-1.0	-0.9	1.1%	14.1%	-8.4
Cc1cccc(OCC(=O)O/N=C(\N)c2ccc(Br)cc2)c1	15.4	-1.8	16.2	-1.3	6.2%	-10.1%	0.7
c1csc(CN2CCN(Cc3cccs3)C2c2cccs2)c1	-1.0	-1.1	8.5	-10.5	-4.4%	21.3%	-8.5
CC(C)=NN1C(=O)c2ccccc2NC1(C)C	-7.3	-3.1	1.8	-0.7	-0.2%	-0.6%	0.4
O=C(CSc1nc2cc(Cl)ccc2s1)N1CCN(C(=O)c2ccco2)CC1	-2.3	-0.4	-3.9	-5.7	-2.6%	-25.2%	-24.3
COC(=O)N/N=C/c1ccc(OCCSc2ccc(Cl)cc2)c(OC)c1	0.5	-1.9	-7.0	3.0	6.0%	?	2.8

A portion taken from the entries so far, for reference:
SMILES	CtBP-E1A inh	D2 agonist	Six1-Eya2 blk	D2 PAM	PINK1 modulator	Sfp PPTase inh	TRPV1 potentiator
Cc1cccc(NC(c2ccc(C)s2)c2ccc3ccc(C)nc3c2O)n1 (stereo not drawn)	-4.8	-3.7	-8.6	-3.5	0.2%	-2.7%	0.5
COc1ccccc1CNC(=O)CCCc1nnc2n(C)c(=O)c3sccc3n12	·	-4.1	-15.8	-4.5	1.1%	2.9%	4.0

(cont.)
SMILES	CtBP-E1A inh	D2 agonist	Six1-Eya2 blk	D2 PAM	PINK1 modulator	Sfp PPTase inh	TRPV1 potentiator
CCCOc1ccc(/C=N/NC(=S)Nc2ccccc2[N+](=O)[O-])c(O)c1	?	-5.5	?	-15.2	21.1%	-18.7%	-14.0
CN1CC(c2ccccc2)Oc2ccccc2C1=S (stereo not drawn)	0.0	-2.4	0.0	-5.2	2.2%	·	·
CN(c1cccc(NC(=O)CSc2ccc(Cl)cc2)c1)S(C)(=O)=O	1.4	0.0	1.0	-11.3	0.6%[38.3 µM]	-3.0%	?
Cc1cc2c(C)nc(Cc3ccccc3)nc2o1	-0.2	-5.1	-16.7	-16.7	-0.5%	0.7%	-14.5
CNC(=O)c1cc(Nc2nnc(-c3ccc(C)c(S(N)(=O)=O)c3)c3ccccc23)ccc1OC	-14.2	-0.4	?	6.1	-1.5%	1.3%	-9.5
CCS(=O)(=O)c1ccc2oc(SCC(=O)NCc3ccccc3)nc2c1	1.4	-2.6	0.0	-4.6	0.9%	-10.0%	29.7
O=C(NCCCc1ccc(F)cc1)C1CCC(=O)N(CC2CCCCC2)C1 (stereo not drawn)	-0.5	-6.9	8.1	13.9	-0.7%	12.3%	-14.9
O=S(=O)(c1ccc(Cl)cc1)N1CCC(O)(CN2CCN(Cc3ccccc3)CC2)CC1	-20.5	0.2	-2.8	-9.7	0.3%	7.4%	-2.3
Cc1nc2c(cc(Oc3ccc(S(=O)(=O)N4CCOCC4)cn3)c3ccsc32)s1	-0.3	4.5	-6.2	7.8	-1.8%	?	-3.7

One compound at a time, from the list above. Screens in order: CtBP-E1A inh | D2 agonist | Six1-Eya2 blk | D2 PAM | PINK1 modulator | Sfp PPTase inh | TRPV1 potentiator
Cc1nc2c(cc(Oc3ccc(S(=O)(=O)N4CCOCC4)cn3)c3ccsc32)s1 is listed with -0.3 | 4.5 | -6.2 | 7.8 | -1.8% | ? | -3.7
CCS(=O)(=O)c1ccc2oc(SCC(=O)NCc3ccccc3)nc2c1 is listed with 1.4 | -2.6 | 0.0 | -4.6 | 0.9% | -10.0% | 29.7
Cc1cc2c(C)nc(Cc3ccccc3)nc2o1 is listed with -0.2 | -5.1 | -16.7 | -16.7 | -0.5% | 0.7% | -14.5
CN(c1cccc(NC(=O)CSc2ccc(Cl)cc2)c1)S(C)(=O)=O is listed with 1.4 | 0.0 | 1.0 | -11.3 | 0.6%[38.3 µM] | -3.0% | ?
O=C(NCCCc1ccc(F)cc1)C1CCC(=O)N(CC2CCCCC2)C1 (stereo not drawn) is listed with -0.5 | -6.9 | 8.1 | 13.9 | -0.7% | 12.3% | -14.9

Four entries out of the list above, sorted by their value in PINK1 modulator, low to high:
SMILES	PINK1 modulator
Cc1nc2c(cc(Oc3ccc(S(=O)(=O)N4CCOCC4)cn3)c3ccsc32)s1	-1.8%
CNC(=O)c1cc(Nc2nnc(-c3ccc(C)c(S(N)(=O)=O)c3)c3ccccc23)ccc1OC	-1.5%
O=S(=O)(c1ccc(Cl)cc1)N1CCC(O)(CN2CCN(Cc3ccccc3)CC2)CC1	0.3%
CCS(=O)(=O)c1ccc2oc(SCC(=O)NCc3ccccc3)nc2c1	0.9%
